Arbovirus inh: blocks arbovirus infection; arbovirus infection cell-based antiviral screen; inhibition, % at 10 µM; 0.37% of 200,000 active;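 active = inhibition from about 30%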;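 note: bluetongue infection of BSR cells; cell survival read as ATP light after 72 h; 0% = infected wells without compound and 100% = uninfected wells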
RecA splice inh: blocks M. tuberculosis RecA intein splicing. P9WHJ3. cell-free RecA intein splicing, fluorescence. inhibition, %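 (about 9 µM by stock and volumes)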. 0.75% of 290,000 active. AID 2221; in the data active = inhibition above about 30%; inconclusive = no clear call, values can overlap the other calls;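 note: 0% = vehicle wells and 100% = reference inhibitor control wells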
Target sequence (P9WHJ3 whole entry, looked up, canonical isoform): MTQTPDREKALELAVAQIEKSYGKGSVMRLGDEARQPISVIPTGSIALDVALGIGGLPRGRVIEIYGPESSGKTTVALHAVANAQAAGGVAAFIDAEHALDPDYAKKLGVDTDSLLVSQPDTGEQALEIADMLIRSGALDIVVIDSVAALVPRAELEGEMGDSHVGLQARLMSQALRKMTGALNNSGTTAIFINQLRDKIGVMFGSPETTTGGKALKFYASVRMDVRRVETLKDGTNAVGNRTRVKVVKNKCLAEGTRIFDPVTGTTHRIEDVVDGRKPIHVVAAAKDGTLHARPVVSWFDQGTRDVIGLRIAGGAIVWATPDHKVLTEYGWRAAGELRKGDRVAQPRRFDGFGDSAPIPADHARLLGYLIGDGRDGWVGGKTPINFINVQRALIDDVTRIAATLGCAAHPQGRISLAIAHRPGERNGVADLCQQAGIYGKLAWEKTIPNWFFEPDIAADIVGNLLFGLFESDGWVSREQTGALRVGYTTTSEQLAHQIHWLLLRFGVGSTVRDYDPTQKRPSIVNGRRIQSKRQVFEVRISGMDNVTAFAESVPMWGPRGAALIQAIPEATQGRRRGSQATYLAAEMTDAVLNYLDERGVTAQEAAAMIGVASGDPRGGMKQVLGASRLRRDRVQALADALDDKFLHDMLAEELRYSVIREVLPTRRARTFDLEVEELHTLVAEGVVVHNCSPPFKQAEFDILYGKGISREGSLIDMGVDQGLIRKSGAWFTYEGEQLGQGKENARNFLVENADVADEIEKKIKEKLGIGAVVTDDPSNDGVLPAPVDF
YopH PTP inh: inhibitors of Yersinia enterocolitica YopH tyrosine phosphatase; fluorescence Ex485/Em525; inhibition, %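 (about 10 µM by stock and volumes)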; 0.16% of 140,000 active;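 active = inhibition of 50% or more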;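 note: controls were vehicle for no effect and minimum signal wells for full effect; inactives centre near -20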
Mtb betalactam: beta-lactam sensitization of Mtb H37Rv; AID 434955; inhibition, % at 25 µM; 0.27% of 330,000 active; M. tuberculosis H37Rv growth with meropenem, percent inhibition; hits of this screen are not shown here;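 active = about 74% or more and at least 40 points above the plate without the antibiotic, then above 30% in a dose series; inconclusive = first-round hits that could not be retested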;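 note: growth measured after seven days incubation then overnight dye step; 0% = bacteria only wells and 100% = bacteria with antibiotic; twin plates without the antibiotic show which effects depend on it; some results filed as inactive read as strong as hits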
Mtb growth: M. tuberculosis H37Rv growth inhibitors, H37Rv strain (AID 1626). M. tuberculosis H37Rv growth inhibition; higher % means a stronger effect. 0.95% of 220,000 active. inhibition, % at 10 µM; hits with a dose series show IC50 in µM;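 active = confirmed in a dose series; inconclusive = inhibition above 80% but not taken into the dose series; inactive = below 80% or under 30% at every dose of the series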;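 note: bacteria incubated seven days before Alamar blue readout; 0% = bacteria only wells and 100% = bacteria with antibiotic wells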
Arbovirus inh repeat: further read-out of Arbovirus inh, marked with its call; inhibition, %; measured here: 10K subset replicate screen; many hits read low in the repeat;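 first of two repeat runs on a subset; 0% = infected and 100% = uninfected wells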
An asterisk follows results filed as active; ? = inconclusive; · = not tested or not shown. Some of the compounds tested (hit frequency here may not be typical).

SMILES	Arbovirus inh	RecA splice inh	YopH PTP inh	Mtb betalactam	Mtb growth	others
CCCCNc1ccncc1S(=O)(=O)NC(=O)NC(C)C	13.1	-0.4	-18.7	0.5	-0.4%
COc1ccnc(Oc2ccccc2)n1	1.2	-0.2	-8.2	-4.8	2.6%
C1CC1Cc1noc(CN2CCN(CC3CC3)CC2)n1	4.6	7.3	·	-3.0	-7.7%
COc1cc(C(=S)N2CCOCC2)cc(OC)c1OC(=O)c1ccc([N+](=O)[O-])cc1[N+](=O)[O-]	·	5.6	·	15.4	·
Cc1cc(NC(=O)CSc2ccc3ccccc3c2)no1	-0.1	5.0	-4.4	-10.7	5.4%
O=C(Nc1ccc(S(=O)(=O)Nc2ncccn2)cc1)c1ccc(F)c(S(=O)(=O)N2CCOCC2)c1	·	4.8	·	-7.2	-2.0%
CCOCCn1c(CN(C)Cc2ccccc2)nc2c1c(=O)n(C)c(=O)n2C	·	-0.9	·	5.9	·
COc1ccc(S(=O)(=O)N2CCC(C(=O)Nc3ccc(F)cc3)CC2)c2cccnc12	6.1	6.7	·	-7.0	2.3%
COc1ccc(Cc2c(O)nc(SCC(=O)N3CCOCC3)[nH]c2=O)cc1	·	-0.4	·	0.9	-7.2%
CCOC(=O)c1ccccc1NC(=S)N1CCC(C(N)=O)CC1	7.7	-2.0	·	-1.5	2.4%
Cc1ccc(CCNC(=O)C2CCC(CNc3c(N4CCC(C)CC4)c(=O)c3=O)CC2)cc1 (stereo not drawn)	-0.3	4.5	-28.5	-0.9	10.4%
O=C(NNC(=O)c1ccccc1Cl)c1cccs1	10.5	0.2	-42.3	-5.6	-0.8%
COc1ccc(OCc2cc(C(=O)N3CCCCCCC3)no2)c(Cl)c1	·	6.9	·	4.4	·
O=C(Nc1ccccc1C(=O)N1CCCCCC1)c1cccc([N+](=O)[O-])c1	·	2.1	·	8.4	·
Cc1ccc(CNC(=O)C2CCN(c3nc(C)cc(C)n3)CC2)cc1	·	1.1	·	-9.7	·
COC(=O)C1CCC(=S)N1C(=O)c1ccccc1 (stereo not drawn)	·	-1.6	·	-0.5	·
COc1ccc(CCNC(=O)CS(=O)Cc2nc(-c3ccc(C)cc3)oc2C)cc1OC (stereo not drawn)	·	0.4	·	-0.3	·
CC(=O)N1CCN(C(=O)c2cccc(S(=O)(=O)N3CCN(c4ccc(F)cc4)CC3)c2)CC1	·	-1.8	·	-9.7	·
COC(c1ccccc1)c1nnc(CCC(=O)NCc2ccc3ncccc3c2)o1 (stereo not drawn)	6.4	-0.3	·	-8.3	-1.0%
O=C(COC(=O)c1cccc([N+](=O)[O-])c1)Nc1ccc(Cl)cn1	·	0.8	·	-0.5	·
O=C(CC1SC(=Nc2ccccc2F)N(CCN2CCOCC2)C1=O)Nc1ccc(F)cc1F (stereo not drawn)	2.7	-0.1	·	3.5	0.3%
Cc1cc(C)c(S(=O)(=O)N2CCCCC2CCNC(=O)C(=O)NCc2ccccn2)c(C)c1 (stereo not drawn)	·	0.9	·	-0.9	·
C/C(CC(=O)Nc1cccc2c1CCCC2)=N\NC(=O)Cc1ccccc1	·	0.1	·	-0.7	·
CC(=O)Nc1ccc(NC(=O)COC(=O)[C@@H](NC(=O)c2ccc(F)cc2)C(C)C)cc1	4.9	15.2	·	2.8	1.1%
Cc1ccc(-c2csc3nnc(SCC(=O)Nc4nsc(-c5ccccc5)n4)n23)cc1	-4.1	-0.5	-31.0	-7.0	-3.1%

Later entries:
SMILES	Arbovirus inh	RecA splice inh	YopH PTP inh	Mtb betalactam	Mtb growth	others
O=C(NC(C(=O)NCCN1CCOCC1)C12CC3CC(CC(C3)C1)C2)C1CCCCC1 (stereo not drawn)	-15.0	0.5	-15.9	-9.3	-1.4%
CC(=O)N1CCN(C(=S)c2ccc(N(C)C)cc2)CC1	-0.9	-3.2	1.9	-3.3	-4.0%
Cc1ccc2c(cnn2C(=O)CCC(=O)NC2CCCCC2)c1	·	-0.1	·	-8.2	·
COc1ccc(S(=O)(=O)Nc2ccc3c(c2)OCO3)cc1OC	-9.0	1.3	-51.9	-32.9	1.3%
Cc1c(Br)c([N+](=O)[O-])nn1CC(=O)NCC1CCCO1 (stereo not drawn)	-5.6	2.3	·	6.7	-7.2%
C/C(=N/NC(=O)c1ccc(Br)o1)c1cccc(NC(=O)c2ccc(C)o2)c1	22.8	-4.6	-18.1	7.4	5.2%
COc1cc(NC(=O)c2ccccc2)c(OC)cc1NC(=O)CN1CCCCC1	-16.4	0.4	-8.7	92.6	25.5%
COc1ccccc1-c1nc(-c2ccccc2)nc(N2CCN(C)CC2)c1C#N	-29.3	0.4	·	53.3	16.5µM*
O=C(O)CC1(CC(=O)Nc2cc(C(F)(F)F)cc(C(F)(F)F)c2)CCCCC1	·	-1.6	·	0.0	·
Cc1cc(C)nc(NC(=O)CN2C(=O)c3ccccc3C2=O)n1	2.2	0.1	-50.4	?	-2.5%
COc1cc(/C=N/n2c(-c3ccc4c(c3)NC(=O)CO4)csc2=Nc2cccc(C)c2)ccc1O	-23.8	12.4	-16.6	90.3	67.2%
Cc1nc(-c2ccc(NC(=O)/C=C\C(=O)O)cc2)cs1	2.4	-1.6	·	-2.0	?
COc1ccc(C(=O)Nc2ccnn2C2CCN(Cc3ccc4nonc4c3)CC2)cc1	·	0.9	·	-11.1	·
CSc1nc(-c2ccccc2)nc2[nH]ccc(=O)c12	-13.8	·	-31.8	·	·	Arbovirus inh repeat=-10.5
O=C(CSc1ncc(C(F)(F)F)cc1Cl)N1CCN(S(=O)(=O)c2ccc3ccccc3c2)CC1	0.2	-2.4	-10.1	-7.6	-3.4%
CCn1ccc(C(=O)Nc2c(C)nn(Cc3c(F)c(F)c(F)c(F)c3F)c2C)n1	5.3	-0.6	-7.6	-5.1	-0.1%
O=C(NC(C1CC1)C1CC1)C1CCC(=O)N(CCCN2CCCC2=O)C1 (stereo not drawn)	·	-4.8	·	1.6	·
Clc1cccc(Cl)c1CSc1cc2c(nn1)-c1ccccc1CC2	16.0	3.1	-18.5	1.8	-4.9%
CN1C(=O)c2ccccc2C(C(=O)NCCCN2CCCC2)C1c1c[nH]c2ccccc12 (stereo not drawn)	17.1	1.5	-12.6	-7.2	5.9%
CCOC(=O)N1CCN(C(=O)COC(=O)Cc2ccc(OC)cc2)CC1	·	0.8	·	3.3	·
O=C(N1CCOCC1)C1(S(=O)(=O)c2ccccc2)CC=CC1	·	-1.1	·	-7.2	·
Cc1ccc(NS(=O)(=O)c2ccc(Br)cc2)nc1	0.2	-1.4	·	1.4	-5.1%
COc1ccc(NC2=C(Cl)C(=O)N(c3ccccc3)C2=O)c(OC)c1	0.6	7.8	·	46.3	54.6%
COc1cccc(OCCn2ccnc2)c1	4.8	1.2	-12.8	-2.1	1.7%
O=[N+]([O-])c1cccc(/C=N/n2c(-c3cccnc3)n[nH]c2=S)c1	5.2	-2.7	-26.1	-6.7	-6.7%

Carrying on:
SMILES	Arbovirus inh	RecA splice inh	YopH PTP inh	Mtb betalactam	Mtb growth	others
CCCCn1c(O)c(C(C)=NCc2ccc3c(c2)OCO3)c(=O)[nH]c1=O	·	-2.2	·	-7.3	10.3%
CCC(=O)N1CCc2cc(S(=O)(=O)CCC(=O)N(C)c3ccc(OC)cc3)ccc21	·	-0.7	·	-4.6	·
CC(=O)c1ccc(NS(=O)(=O)c2ccc3ccccc3c2)cc1	6.1	-0.5	22.5	11.3	5.1%
O=C(Nc1nccs1)c1cc2cc(Cl)ccc2oc1=O	·	-5.5	·	98.0	?
Cc1nc(C)c(C(=O)N(c2ccc(F)cc2)C(C(=O)NCC2CCCO2)c2ccccc2)s1 (stereo not drawn)	·	0.7	·	-5.9	·
O=C(c1ccc(NC(=S)Nc2ccc(F)cc2F)cc1)N1CCOCC1	8.1	0.2	·	-8.1	3.2%
O=c1oc(-c2cccs2)nc2ccccc12	11.9	17.0	19.5	-1.6	7.0%
O=C(NCCc1ccc(Cl)cc1)C1COc2ccccc2O1 (stereo not drawn)	·	1.8	·	10.2	·
O=C(NCCCCNC(=O)c1cccnc1Cl)c1cccnc1Cl	·	-2.0	·	-6.8	·
O=C(O)Cn1cc(C(=O)C2CC2)c2ccccc21	7.7	·	10.4	-9.2	2.1%
C#CCNC(=O)C1=C[C@H](c2ccc(Br)cc2)[C@@H](CCCO)[C@H](OCC)O1	1.4	-1.7	·	-1.3	-0.3%
O=[N+]([O-])c1cccc(S(=O)(=O)N/N=C\c2ccc3c(c2)OCO3)c1	·	-0.2	·	1.3	·
COCCn1c(SCC(=O)NCCc2ccc(OC)c(OC)c2)nc2c([nH]c3ccccc32)c1=O	12.6	-0.4	·	6.6	-10.5%
O=C(NCCN1C(=O)S/C(=C\c2cccnc2)C1=O)c1cc(S(=O)(=O)N2CCOCC2)ccc1F	·	9.9	·	3.3	-15.4%
COCCNC(=O)C1Cc2c(ccc3ccccc23)O1 (stereo not drawn)	1.0	4.4	·	-4.3	3.1%
O=C(Cc1c(F)cccc1Cl)Nc1ccon1	-0.5	0.5	-26.7	12.2	8.7%
COc1ccc(Br)cc1/C=N/NC(=O)c1nc(-c2ccccc2)n2c1CCCCC2	-5.0	-2.2	1.8	11.0	13.7%
CC1(C)Oc2ccc(C(=O)NC3CC3)cc2N(CC(=O)N2CCOCC2)C1=O	-1.3	-1.3	-39.5	1.4	-10.6%
CC1(C)C(=O)Nc2ccccc2N1C(=O)COC(=O)Cn1cnc2ccccc2c1=O	1.1	4.6	-10.5	-1.3	0.1%
O=C1CCC(=O)N1CN(C(=O)c1ccco1)c1ccccc1	-0.7	0.2	-34.8	-12.5	-3.3%
CCOC(=O)c1c(C)nc(C)c(C(=O)OCC)c1-c1ccc(OC)cc1	-0.5	·	17.9	0.2	-0.6%
Cc1ccccc1CC1(CO)CCCN(Cc2ccccc2Cl)C1 (stereo not drawn)	·	-3.8	·	5.3	·
CC(C)C(=O)Nc1ccc(Nc2ccccc2)cc1	-11.5	0.6	-5.2	-6.1	-2.5%	Arbovirus inh repeat=-5.3
CCOC(=O)C1=NN(c2ccccc2)C2=NC(C)=C(C(=O)OC)C(c3ccc(C)cc3)N12 (stereo not drawn)	-5.3	9.3	-27.1	4.6	-6.9%
COc1ccc(/C=C(\C#N)c2nc3ccc(C)cc3[nH]2)cc1Oc1ccc(C(F)(F)F)cc1[N+](=O)[O-]	-32.5	-5.1	-18.5	2.1	·

Further records follow:
SMILES	Arbovirus inh	RecA splice inh	YopH PTP inh	Mtb betalactam	Mtb growth	others
O=C(c1cccc(S(=O)(=O)N2CCCCC2)c1)N1CCc2ccccc21	2.1	7.7	-19.1	-0.4	5.1%
O=C1CC(NCc2ccc3c(c2)OCO3)C(=O)N1CCc1ccccc1 (stereo not drawn)	-4.0	-1.9	7.0	-4.0	-3.7%	Arbovirus inh repeat=8.5
COC(=O)c1ccccc1NC(=S)N(Cc1ccc2c(c1)OCO2)Cc1cc2ccc(OC)cc2[nH]c1=O	-3.9	-0.7	-32.4	-0.6	3.2%
CCOC(=O)c1ccc2[nH]c(-c3ccc(S(=O)(=O)F)cc3)cc(=O)c2c1	·	-2.3	·	5.0	5.5%
CC(C)COc1ccc(C(=O)NCc2ccco2)cc1	0.9	5.5	-33.2	1.6	-9.3%
O=C(NNC(=O)C1CCCCC1)c1ccc(Br)cc1	1.3	-1.3	·	-0.7	3.9%
O=C(CN1CCC(Cc2ccccc2)CC1)NC(=O)NC1CCCCC1	15.1	4.4	·	-2.5	12.0%
CN(C)c1ccc(C2=NOC(CN3C(=O)c4ccccc4S3(=O)=O)C2)cc1 (stereo not drawn)	3.9	0.5	-16.9	-8.3	-0.7%
O=C(/C=C/c1cccs1)c1ccc([N+](=O)[O-])cc1	·	-0.5	·	68.8	33.6%
CC(C)(C)c1cc(NCCCn2ccnc2)n2ncc(-c3ccc(Cl)cc3)c2n1	-27.9	17.5	-35.6	98.9	0.939µM*
CSc1nsc(SC)c1C(=O)Nc1ccc(Cl)cc1	·	-0.6	·	0.1	-11.9%

Screening results from PubChem BioAssay.
